VACV Venus inh = qHTS for Stage-Specific Inhibitors of Vaccinia Orthopoxvirus: Venus Reporter Primary qHTS. Vaccinia virus Venus reporter expression, fluorescence. Potency, µM (highest dose often 36.5 µM), inactives show at the top dose activity change, negative = inhibition, hits mostly inhibitors. actives 0.46% (n = 330,000); active means well fitted inhibition curve with a large enough effect; inconclusive means small, poorly fitted or top-dose-only effect; inactive means no such curve, though single readings can be large or run the other way; tested in A549 cells; further: nearly all actives have a fitted effect of over 30% in size; inactives centre near -10
VACV mCherry inh = qHTS for Stage-Specific Inhibitors of Vaccinia Orthopoxvirus: mCherry Reporter Primary qHTS; Vaccinia virus mCherry reporter infection, fluorescence; about a quarter of the inactives have no number; Potency, µM (highest dose often 36.5 µM), without a hit: at the highest dose activity change, negative = inhibition, most hits filed as inhibitors; actives 0.63% (n = 310,000); active = well fitted inhibition curve with a large enough effect; inconclusive = small, poorly fitted or top-dose-only effect; inactive = no such curve, though single readings can be large or run the other way; tested in A549 cells; further: nearly all actives have a fitted effect of over 35% in size; inactives centre near -10
The depositor's hits bear a star; i = inactive; u = inconclusive; x = not tested or not shown; & = joins results of further samples; [ ] = another dose, or the depositor's remark. On the % scale 0 is the no-effect control and ±100 the full control effect; potency means the concentration at half of the fitted maximal effect.

Value order – VACV Venus inh	VACV mCherry inh
> CCOc1ccc(S(=O)(=O)NCCc2csc3nc(-c4cccc(C)c4)nn23)cc1
  -18%	-10%
> CN(C1CCCCC1)S(=O)(=O)c1ccc(C(=O)Nc2sc3c(c2C(N)=O)CC(C)(C)NC3(C)C)cc1
  -13%&-2%	-9%&-18%
> O=C(c1cccc(S(=O)(=O)N2CCCC2)c1)N1CCN(c2ncccn2)CC1
  7%	-6%
> CN1CCN(C(=O)CNC(=O)Cc2ccc(Cl)cc2)CC1
  -11%	i
> Cc1cc(Cl)c(S(=O)(=O)N2CCN(c3ccccc3)CC2)cc1OCC(N)=O
  -25%	-27%
> NC(=O)c1ccc(-c2csnn2)cc1
  -4%	-10%
> COc1cccc(NC2=Nc3cccc4cccc2c34)c1
  -16%	-12%
> COc1ccc(CNC(=O)c2ccc[nH]2)cc1Cl
  -3%	-8%
> COC(=O)c1ccccc1S(=O)(=O)N1CCC(C(=O)OC(C)C(=O)Nc2ccc(NC(C)=O)cc2)CC1 (stereo unspecified)
  -10%	-14%
> CCN(CC)C(=O)c1sc2nc(-c3ccccn3)[nH]c(=O)c2c1C
  -24%	-15%
> CCOC(=O)NNC(=S)Nc1c(C)n(C)n(-c2ccccc2)c1=O
  7%	i
> O=C(CSc1nc(COc2ccccc2)nc2ccccc12)NC1CCCC1
  -21%	i
> CC1CCN(S(=O)(=O)c2ccc(C(=O)NCc3cccnc3)cc2)CC1
  -25%	i
> Cc1[nH]c2ccccc2c1C(=O)c1cc([C@H](NC(=O)OC(C)(C)C)C(C)C)sc1N
  -27%	-11%
> O=C(COC(=O)Cc1c(F)cccc1Cl)Nc1nnc(-c2ccccc2)o1
  -9%	i
> CN(C)c1cccc(NC2=CC(=[N+]3CCOCC3)CC(C)(C)C2)c1
  -9%	i
> C=CCNC(=O)/C(C#N)=C/c1ccc(OS(=O)(=O)c2ccc(C)cc2)c(OC)c1
  -14%	-16%
> CCN(CC)Cc1ccccc1Sc1ccccc1
  -6%	i
> CC1(C)CC(=O)C=C(N=CC2=C(O)CC(C)(C)CC2=O)C1
  -7%	x
> Cc1ccc(S(=O)(=O)Nc2ccncc2)c(C)c1N(C)S(=O)(=O)c1ccc(Cl)cc1
  -3%	-10%
> COc1cccc(OC2OC3COC(C)(C)OC3C(O)C2NC(C)=O)c1 (stereo unspecified)
  -12%	-6%
> Cc1ccc(CCNC(=O)c2c(C)nn(-c3ccc(F)cc3)c2-n2cccc2)cc1
  -5%	-15%
> CCOc1cc(C2NC(=O)c3c(sc4c3CCN(C)C4)N2)ccc1OC(=O)c1ccc(Br)cc1 (stereo unspecified)
  7%	-6%
> COCCCNC(=O)c1c(NC(=O)c2cc(=O)c3ccccc3o2)sc2c1CCCC2
  5%	-9%
> Cn1c(=O)n(C)c2cc(NC(=O)COc3ccc(Cl)cc3)ccc21
  -8%	i
> CC(NC(=O)CCc1nc2cc(S(=O)(=O)N3CCOCC3)ccc2n1C)c1ccc(S(N)(=O)=O)cc1 (stereo unspecified)
  -12%	i
> C=CCNC(=O)/C(C#N)=C/c1ccccc1[N+](=O)[O-]
  -12%	u
> Cc1cc(C)cc(NC(=O)Nc2ccccc2OCc2cc(=O)n3ccccc3n2)c1
  -22%	-6%
> Cc1nn(CC(=O)Nc2ccc(N3CCOCC3)cc2)c(C)c1Cl
  -5%	i
> CCOCCc1nn2c(=O)cc(COC(=O)COc3ccccc3Cl)nc2s1
  -6%	-6%
> Cn1c(CNC(=O)OC(C)(C)C)n[nH]c1=S
  -4%	-20%
> Cc1ccc(C(=O)NC(=S)NCC2CCCO2)cc1Br (stereo unspecified)
  -13%	i
> COc1ccc(CNC(=O)c2ccc(CS(=O)c3ccccc3)o2)cc1 (stereo unspecified)
  16%[7.34 µM]	0%[7.34 µM]
> CCC(=O)Nc1cccc(-c2nc3cc(C)ccc3o2)c1
  2%	-12%
> O=C1NC(=O)C(C2CCCCCC2)C(=O)N1
  -13%	i
> CCCCCC(=O)Nc1cccc(-c2nc3ncccc3o2)c1
  -21%	-25%
> CCCc1nc2scc(-c3ccc(C)cc3)c2c(=O)n1N
  -19%	-26%
> COc1ccc2[nH]cc(CCN3C(=O)CCC3=O)c2c1
  -13%	x
> COCCC(=O)N1CCC(Oc2ccc(C(=O)NCCc3cn[nH]c3)cc2)CC1
  -9%	-12%
> Cc1ccc(S(=O)(=O)CCC(=O)OCC(=O)NCc2ccc(F)cc2)cc1
  -10%	i
> C[C@H](CO)N1C[C@H](C)[C@@H](CN(C)C(=O)Nc2ccc(C(F)(F)F)cc2)Oc2ccc(NC(=O)CCC(F)(F)F)cc2C1=O
  -13%	i
> CCN(C(=O)CN(C)S(=O)(=O)c1ccc2c(c1)n(C)c(=O)c(=O)n2C)c1cccc(C)c1
  -7%	-8%
> CCCCNc1nc2c(c(=O)n(Cc3ccc(Cl)c(Cl)c3)c(=O)n2C)n1C
  -5%	-17%
> O=C(Nc1ccc(CN2CCOCC2)cc1)c1ccc(-c2ccc(Cl)cc2Cl)o1
  u	-9%
> Cc1cccc(C(=O)NCC(=O)N2CCN(c3ccccn3)CC2)c1
  -15%	-8%

Part of the list above in order of molecular weight, rising:
Value order – VACV Venus inh	VACV mCherry inh
> C=CCNC(=O)/C(C#N)=C/c1ccccc1[N+](=O)[O-]
  -12%	u
> O=C(CSc1nc(COc2ccccc2)nc2ccccc12)NC1CCCC1
  -21%	i
> CCCCNc1nc2c(c(=O)n(Cc3ccc(Cl)c(Cl)c3)c(=O)n2C)n1C
  -5%	-17%

A draw from above in order of SMILES length, ascending:
Value order – VACV Venus inh	VACV mCherry inh
> COc1ccc(CNC(=O)c2ccc[nH]2)cc1Cl
  -3%	-8%
> COc1cccc(NC2=Nc3cccc4cccc2c34)c1
  -16%	-12%
> CCCc1nc2scc(-c3ccc(C)cc3)c2c(=O)n1N
  -19%	-26%
> CN1CCN(C(=O)CNC(=O)Cc2ccc(Cl)cc2)CC1
  -11%	i
> Cc1nn(CC(=O)Nc2ccc(N3CCOCC3)cc2)c(C)c1Cl
  -5%	i
> CCOC(=O)NNC(=S)Nc1c(C)n(C)n(-c2ccccc2)c1=O
  7%	i
> O=C(COC(=O)Cc1c(F)cccc1Cl)Nc1nnc(-c2ccccc2)o1
  -9%	i
> Cc1ccc(S(=O)(=O)CCC(=O)OCC(=O)NCc2ccc(F)cc2)cc1
  -10%	i
> CCCCNc1nc2c(c(=O)n(Cc3ccc(Cl)c(Cl)c3)c(=O)n2C)n1C
  -5%	-17%
> C=CCNC(=O)/C(C#N)=C/c1ccc(OS(=O)(=O)c2ccc(C)cc2)c(OC)c1
  -14%	-16%
> Cc1ccc(S(=O)(=O)Nc2ccncc2)c(C)c1N(C)S(=O)(=O)c1ccc(Cl)cc1
  -3%	-10%
> CCN(C(=O)CN(C)S(=O)(=O)c1ccc2c(c1)n(C)c(=O)c(=O)n2C)c1cccc(C)c1
  -7%	-8%
> COC(=O)c1ccccc1S(=O)(=O)N1CCC(C(=O)OC(C)C(=O)Nc2ccc(NC(C)=O)cc2)CC1 (stereo unspecified)
  -10%	-14%

New compounds follow
Value order – VACV Venus inh	VACV mCherry inh
> O=c1c2ccccc2[nH]c(=S)n1-c1ccc(Br)cc1
  -12%	-10%
> O=[N+]([O-])c1ccc(N2CCN(CCOCCO)CC2)c([N+](=O)[O-])c1
  -6%	i
> COCc1c(C(=O)N/N=C\c2cccs2)nnn1-c1nonc1N
  6%	-9%
> COc1ccc(OCc2nnc(SCC(=O)Nc3ccccc3C#N)o2)cc1
  -8%	-14%
> CCOc1cc(CNCc2cc(OC)cc(OC)c2)ccc1OC
  -22%	-7%
> COc1ccc(NC(=O)CCc2nc3cccnc3n2Cc2cccs2)c(OC)c1
  5%	-9%[7.34 µM]
> Cc1cnc(-n2ncc(C(=O)NCc3ccncc3)c2C(C)C)nc1-c1ccc(F)cc1
  -17%	-22%
> CCc1nc2ccc(C(=O)NCCOc3ccc(OC)cc3)cn2c1N(C=O)Cc1ccc(OC)cc1
  -3%	53%[activator]
> O=C(NC1CCCC1)C(c1ccccc1)N(Cc1ccc(F)cc1)C(=O)c1csnn1 (stereo unspecified)
  6%	-12%
> O=C1c2ccc(-c3ccc(F)cc3OCc3ccccc3)cc2S(=O)(=O)c2cccc(C(=O)N3CCN(c4ncc(Br)cn4)CC3)c21
  -26%	i
> O=C(Cn1cc([N+](=O)[O-])ccc1=O)NCC1COc2ccccc2O1 (stereo unspecified)
  -3%	-13%
> Cc1noc(C)c1COc1ccc(C(=O)OC(C)C(=O)Nc2ccc(S(=O)(=O)N3CCOCC3)cc2)cc1 (stereo unspecified)
  -10%	i
> Cc1ccc(NC(=O)c2ncn(CCCNCC(C)c3ccccc3)n2)cc1C (stereo unspecified)
  -19%	i
> COc1ccc(CCC(=O)NCC(c2ccco2)N2CCc3ccccc32)cc1 (stereo unspecified)
  u	-17%
> O=C1c2ccsc2SCCN1Cc1ccc(Cl)cc1Cl
  -11%	x
> O=C(COC(=O)c1cc([N+](=O)[O-])ccc1NCc1ccccc1)NC1CCCc2ccccc21 (stereo unspecified)
  -8%	-15%
> CCOc1ccc(NS(=O)(=O)c2ccc3[nH]cc(C(=O)NCCc4ccccc4)c(=O)c3c2)cc1
  -5%	-13%
> CCOC1CCCc2oc(-c3ccc(OC)cc3)c(C(=O)NCCCCO)c21 (stereo unspecified)
  -3%	20%
> O=C(Cc1ccc([N+](=O)[O-])cc1)Nc1cc(C(F)(F)F)cc(C(F)(F)F)c1
  -9%	i
> COc1ccc(C(=O)NCCCNC(=O)c2cnccn2)cc1Br
  1%	-8%
> Cc1ccc(C(=O)NC2CCCCNC2=O)cc1C (stereo unspecified)
  -7%	i
> Cc1cc(=O)n2c(c1C#N)SC1CCCCC12O (stereo unspecified)
  -7%	-21%
> Ic1ccccc1CN[C@@H]1C2CCN(CC2)[C@@H]1C(c1ccccc1)c1ccccc1
  u	u
> CN(C(=O)c1cccc(NC(=O)Cc2ccc([N+](=O)[O-])cc2)c1)C1CCCCC1
  u	u
> Cc1ccccc1N(CC(=O)N1CCCC1)S(=O)(=O)c1ccc(Cl)cc1
  -10%	-4%
> CCOc1ccccc1NC(=O)c1c(NC(=O)C(C)Oc2ccc(Cl)cc2)sc2c1CCCCC2 (stereo unspecified)
  0%	-12%
> CC(=O)c1cccc(NC(=O)c2nc(-c3ccccc3)n(-c3cccc(Cl)c3)n2)c1
  -6%	-12%
> CN(C)NC(=S)NC1CCS(=O)(=O)C1 (stereo unspecified)
  -6%	-11%
> N#C/C(=C/N1CCOCC1)c1ccccc1
  6%	x
> COCCn1nnnc1C(c1ccc2ncccc2c1)N1CCN(c2ccccc2F)CC1 (stereo unspecified)
  3%	i
> Cc1ccc(C(C(=O)NC2CCCCC2)N(C(=O)c2csnn2)C2CC2)o1 (stereo unspecified)
  -10%	-23%
> Cc1ccc(C)c(Nc2nc3c(S(=O)(=O)c4ccccc4)nnn3c3ccccc23)c1
  -11%	-15%
> Cc1cc(C)cc(C(=O)NCCCN2CCOCC2)c1
  -24%	-1%
> COc1ccc(-c2noc(Cc3ccccc3OC)n2)cc1
  -14%	i
> O=C(O)c1cccc(COc2cccc3ccccc23)c1
  -3%	-7%
> Cc1ccc(NS(=O)(=O)c2ccc3nc(-c4ccccc4)[nH]c3c2)c(Cl)c1
  -17%	u
> CCOC(=O)c1c(C)cccc1OCC(N)=O
  15%	x
> COc1ccccc1-c1cc(C(=O)NCCCN2CCOCC2)no1
  -8%	i
> COc1ccc(S(=O)(=O)N2N=C(C)Oc3ccccc3C2=O)cc1
  u	u
> O=C(NCC1COc2ccccc2O1)c1ccc(Br)s1 (stereo unspecified)
  -14%	-12%
> COc1cc(/C=N/N=C(\N)c2nonc2N)ccc1O
  -6%	-18%
> COc1cccc(CNC(=O)CSc2ccc(-c3sc(-c4ccccc4)nc3C)nn2)c1
  -25%	-24%
> CCOc1ccc(-n2c(SCC(=O)Nc3ccc(OC)cc3OC)nc3c(c2=O)SCC3)cc1
  -16%	-4%
> COc1ccc2c(c1)c1c(c(=O)n(-c3ccccc3)c(=O)n1CC(=O)NCc1ccc(C)cc1)n2C
  0%	-1%
> CCCSc1nc(C)cc(C)c1S(C)(=O)=O
  -8%	-11%
> C[C@@H]1C(c2ccc(F)cc2)=NN(c2ccccc2)[C@H]1C(=O)N1CCOC1=O
  -23%	u
> Cn1c(CNc2nc(-c3ccccc3)cs2)nnc1SCC(=O)N1CCc2ccccc21
  u	x
> CSc1ccc(CN(C)CC(=O)NC(C)c2ccccc2)cc1 (stereo unspecified)
  -4%	-6%
> COc1ccc(/C=C/C(=O)OCC(=O)NC2CCCCC2C)c(OC)c1 (stereo unspecified)
  -9%	-12%
> COc1cc(/C=C/C(=O)OCC(=O)Nc2cc(C)on2)ccc1OCC#N
  -12%	-19%
> CCOCCCn1c(=NC(=O)c2cccs2)c(C#N)cc2c(=O)n3ccccc3nc21
  -2%	-5%
> Cc1csc(NC(=O)C2CCCCN2S(=O)(=O)c2ccccc2)n1 (stereo unspecified)
  -12%	-16%
> CC(=O)OC[C@@]1(O)C[C@]23CCC4c5ccoc5CC[C@@]4(C)C2CCC1C3 (stereo partly specified)
  48%[activator]	35%[activator]
> CCOC(=O)Nc1cc(C)c(Cl)cc1OC
  -3%	x
> CC1=CCC2C(=O)N(c3ccccc3OC(=O)c3ccccc3F)C(=O)C2C1 (stereo unspecified)
  -14%	-13%
> CCCCCC(=O)OC(CN1CCCCC1)CN1CCCC1=O (stereo unspecified)
  -8%	x
> CN(C)Cc1c(O)ccc2oc(Cc3ccccc3)cc12
  -19%	-29%
